Screens: PubChem BioAssay, Johns Hopkins Ion Channel Center
KCNQ2 enhance: KCNQ2 (rat) channel potentiation. O88943. CHO-K1 KCNQ2, FluxOR thallium flux fluorescence; stronger effect = higher value. B-score at 10 µM. 0.54% of 310,000 active. AID 2239;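 active = fluorescence ratio B-score at least 3 SD of library B-scores, with initial fluorescence B-score within 3 SD, cut at about 5.3 in these data; same plate scores as AID 2156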;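 note: B-score of peak minus minimum over baseline fluorescence ratio after K+ and Tl+ stimulus; positive B-score means potentiation of KCNQ2 with more thallium influx and brighter signal; only the inactives scoring about 0 or higher are listed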
Target sequence (O88943 whole entry, looked up): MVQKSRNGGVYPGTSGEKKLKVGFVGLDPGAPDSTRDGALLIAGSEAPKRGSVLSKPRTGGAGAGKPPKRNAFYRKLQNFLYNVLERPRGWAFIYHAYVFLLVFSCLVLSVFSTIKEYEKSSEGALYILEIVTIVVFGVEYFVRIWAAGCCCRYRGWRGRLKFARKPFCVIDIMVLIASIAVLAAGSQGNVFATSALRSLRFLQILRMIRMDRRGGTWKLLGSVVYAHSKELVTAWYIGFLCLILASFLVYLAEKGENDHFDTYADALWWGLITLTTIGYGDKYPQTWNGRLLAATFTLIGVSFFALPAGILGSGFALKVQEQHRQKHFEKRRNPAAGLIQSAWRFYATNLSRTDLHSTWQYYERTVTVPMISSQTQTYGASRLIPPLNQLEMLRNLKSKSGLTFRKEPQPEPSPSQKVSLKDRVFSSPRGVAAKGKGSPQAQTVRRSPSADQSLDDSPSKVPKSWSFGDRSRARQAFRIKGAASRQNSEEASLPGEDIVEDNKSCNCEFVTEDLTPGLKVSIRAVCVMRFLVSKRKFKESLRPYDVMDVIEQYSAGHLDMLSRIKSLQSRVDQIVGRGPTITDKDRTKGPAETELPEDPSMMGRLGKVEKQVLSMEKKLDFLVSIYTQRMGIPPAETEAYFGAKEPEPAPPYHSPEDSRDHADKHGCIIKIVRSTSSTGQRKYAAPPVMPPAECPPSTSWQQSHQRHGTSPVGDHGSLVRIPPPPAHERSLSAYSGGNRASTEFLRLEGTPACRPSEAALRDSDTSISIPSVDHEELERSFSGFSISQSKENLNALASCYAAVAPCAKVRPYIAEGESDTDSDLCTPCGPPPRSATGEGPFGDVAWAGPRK
KCNQ2 enhance baseline: further read-out of KCNQ2 enhance, marked with its call; B-score; compound at 10 µM; measured here: initial fluorescence intensity artifact check;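 brightness before thallium and not channel activity; 0 = typical well and far values either way flag optical interference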
The depositor's hits bear a star. These rows are one share of the data; rates above refer to the full screens.

nr	KCNQ2 enhance	KCNQ2 enhance baseline	Compound
1	0.14	-0.06	COc1ccc(F)cc1C(=O)C1CCCN(Cc2c(C)n(C)n(-c3ccccc3)c2=O)C1 (configuration not stated)
2	0.57	-0.09	COc1cccc(C(=O)c2cn(CC(=O)NCc3ccco3)c3nc(C)ccc3c2=O)c1
3	1.2	-0.47	Nn1c(SCc2cccc(F)c2)nnc1-c1ccncc1
4	2.5	-0.4	CCN(CC)c1ccc(S(=O)(=O)N2CCOCC2)cc1NC(=O)COC(=O)COc1ccccc1C
5	0.62	-0.44	CN1CCN(C(=O)c2cc3cc(F)ccc3[nH]2)CC1
6	0.23	-0.19	Cc1cn(COC/C=C/c2ccccc2)c(=O)[nH]c1=O
7	0.01	-1.6	COc1ccc(C)cc1Nc1nnc(C)c(=O)[nH]1
8	0.37	0.46	COCCc1nnc(NC(=O)Cc2ccccc2)s1
9	0.34	0.23	CCSc1nnc(Cn2c(=O)sc3ccccc32)n1-c1ccc(OC)cc1
10	0.04	0.1	Cc1cc(C)c(C#N)c(SCCN2CCCCC2)n1
11	1.2	-2	COc1ccc(Cc2nc3ccc(C(=O)N4CCC(N(C)C)C4)cc3o2)cc1 (configuration not stated)
12	0.32	-0.64	CN(C)c1ccc(C(=O)NCc2ccc3c(c2)CCO3)cc1
13	0.14	0.23	COc1ccc(OC)c(/C=N/NC(=O)c2nnn(-c3nonc3N)c2-c2cccs2)c1
14	0.45	2.2	NC(=O)CC(NC(=O)Cc1ccc(Cl)cc1)c1ccc(NCc2ccccc2)c([N+](=O)[O-])c1 (configuration not stated)
15	0.79	-0.91	O=C(O)CS(=O)CC(=O)NCc1cccc(C(F)(F)F)c1 (configuration not stated)
16	0.06	0.42	CCC1C(=O)c2ccccc2N(C)C1=O (configuration not stated)
17	0.63	1.8	Nc1ccc(S(=O)(=O)N2CCCC2)cc1Cl
18	1.3	-0.01	COc1cc2c(cc1NC(=O)CCCN1C(=O)CCC1=O)oc1ccccc12
19	1.4	-3.3	COC(=O)c1ccc(CNC(=O)COC(=O)COc2ccc(OC)cc2)cc1
20	2	-0.85	Cc1nc(SCC(N)=O)c([N+](=O)[O-])[nH]1
21	0.18	-3.1	O=C(OCC(O)COC(=O)c1cccnc1)c1cccnc1
22	0.36	0.27	C=CCn1c(N2CCCCCC2)nc2c1c(=O)n(C)c(=O)n2C
23	0.53	2	Cc1ccc(S(=O)(=O)N(C)c2ccc(C(=O)Nc3ccc(C)cn3)cc2)cc1
24	1.3	-1.2	O=C(O)c1cc(-c2ccccn2)n[nH]1
25	0.38	-1.4	CCCN(C(=O)CSc1nnnn1-c1ccccc1OC)C1CCS(=O)(=O)C1 (configuration not stated)
26	0.12	1.7	Cc1ccc(NC(=S)NNC(=O)CCn2cc(C)cn2)cc1
27	0.36	-1.2	O=[N+]([O-])c1ccccc1S(=O)(=O)NCc1ccco1
28	0.17	-0.27	COc1cc(/C=N\NS(=O)(=O)c2ccccc2)cc(OC)c1OC
29	0.3	-1.8	Cc1ccc(N2C(=O)[C@@H]3[C@H](C2=O)[C@H]2C=CC=NN2[C@@H]3C(=O)Nc2ccccc2)cc1
30	0.04	1.9	O=C(NCc1cccnc1)C1CCN(S(=O)(=O)c2cccnc2)CC1
31	0.01	-0.04	Cc1ccc(-c2nnn(CC(=O)N(c3ccccc3)C(C(=O)NC3CCCC3)c3ccncc3)n2)o1 (configuration not stated)
32	0.06	-0.52	Cc1ccc(C2c3c(oc4cc(C)c(C)cc4c3=O)C(=O)N2CCCN2CCOCC2)cc1 (configuration not stated)
33	1.8	-1.9	CCOC(=O)C1(Cc2cccc(OC)c2)CCN(Cc2ccc(OC)c(OC)c2)CC1
34	1.7	0.18	O=C(Cc1ccc(F)cc1)Nc1nnc(SCC(=O)N2CCCCC2)s1
35	0.52	-2.5	Cc1ccc(C(=O)Nc2ccc3nccnc3c2)cc1
36	0.91	1.4	OC(CNCC1CCCO1)COc1ccc(OCC(O)CNCC2CCCO2)cc1 (configuration not stated)
37	0.37	0.49	COc1ccccc1CN(C)C(=O)c1cnc(C)cn1
38	3.7	-0.6	CCOc1ccc2ccccc2c1/C=N/NC(=O)c1ccc(C)nc1
39	0.79	-0.87	CCOC(=O)N1CCN(C(=O)CSc2nc3c([nH]c4ccccc43)c(=O)n2CC)CC1
40	1.3	0.7	CCOC(=O)c1cc(/C(C)=N/OC(=O)c2ccc(Cl)cc2)on1
41	1.2	-1.8	O=C(CSc1nnc(Cc2ccccc2)o1)N1CCCc2ccccc21
42	1.3	-3.8	O=C(Nc1ccc(C(=O)N2CCOCC2)cc1)Nc1cccc(C(F)(F)F)c1
43	0.61	-0.58	CCOc1ccc(OCC)c(NC(=O)CN2CCC(NC(=O)c3cccc(F)c3)CC2)c1
44	4.8	-1	CC(=O)Oc1cc(O)c2c(c1)OC(c1ccc(OC(C)=O)c(OC(C)=O)c1)C(OC(C)=O)C2=O (configuration not stated)
45	0.02	1.6	O=C(COc1ccccc1)N(Cc1cccc(F)c1)C1CCS(=O)(=O)C1 (configuration not stated)
46	1.6	-0.29	CN(C)c1ccc(C(=O)NNC(=O)Nc2ccccc2)cc1
47	0.34	-0.26	COc1ccc(CNC(=O)CCn2nc(C)c3c(C)n(-c4ccccc4)nc3c2=O)c(OC)c1
48	1.7	-0.11	CC(=O)Nc1ccc(NC(=O)COC(=O)c2ccco2)cc1
49	4	-1.5	C=CCNC(=O)c1onc(CSc2cc(C)ccc2C)c1C(=O)O
50	2.2	-0.83	COC(=O)c1sccc1NC(=O)Nc1ccccc1Cl

Other records
nr	KCNQ2 enhance	KCNQ2 enhance baseline	Compound
51	0.05	0.01	COc1ccc(S(=O)(=O)N2CCC3(CC2)OCCN3S(=O)(=O)c2cccs2)cc1OC
52	0.27	-0.32	C/C(=N\NC(=O)c1ccc(=O)[nH]n1)c1cccnc1
53	1.8	1.3	CSc1ccccc1C(=O)Nc1cc2c(cc1C(=O)O)OCCCO2
54	0.64	1.9	CCCCNS(=O)(=O)c1ccc2nc(SCC(N)=O)[nH]c2c1
55	0.58	-0.18	COCCSc1nc(N)c(NC(=O)c2ccco2)c(=O)[nH]1
56	0.44	3.4	O=[N+]([O-])c1cccc(/C=N/n2cnnc2)c1O
57	0.93	-0.9	CC(=O)Nc1ccc(NC(=O)C(C)OC(=O)CCCc2c[nH]c3ccccc23)cc1 (configuration not stated)
58	0.26	0.55	Cc1ccc(S(=O)(=O)NCC(=O)N(CC(=O)NCc2ccco2)C2CCCC2)cc1
59	0.67	0.36	N#CC1=C2SCN(Cc3ccco3)CN2C(=O)CC1c1c(F)cccc1Cl (configuration not stated)
60	0.08	-0.03	CC(C)(C)NC(=O)C(Cc1ccccc1)NS(=O)(=O)c1ccc2c(c1)CCC(=O)N2 (configuration not stated)
61	0.02	0.39	O=C(CCSCCc1ccccn1)Nc1c(F)cc(F)cc1Br
62	0.73	-0.27	O=C(C[n+]1ccn(CCCNP2(=O)C=C(c3ccccc3)OC(c3ccccc3)=C2)c1)c1cccs1
63	1.1	-1.1	CS(=O)(=O)N1CCc2cc(C(=O)O)ccc21
64	0.01	0.82	OCCNCCCCOc1ccc(F)cc1
65	0.48	0.06	COc1ccc(NC(=S)NN2C(C)CCCC2C)cc1 (configuration not stated)
66	0.16	0.74	Cc1ccc(NC(=O)Nc2ccc3c(c2)CCC3)cc1
67	1.4	-0.95	O=C(Cn1cc(C(=O)COc2ccccc2)c2ccccc21)NCc1ccco1
68	1.9	0.37	O=C(NC1(C(F)(F)F)C(=O)Nc2c1c(=O)[nH]c(=O)n2-c1ccccc1)c1ccncc1 (configuration not stated)
69	0.07	3	COc1ccc(/C(O)=C2/C(=O)C(=O)N(CCN(C)C)C2c2ccc(C)cc2)cc1Cl (configuration not stated)
70	13*	-1.3*	O=C(NCCCCc1ccccc1)Nc1cccc(F)c1
71	0.94	-1.8	C#CCNC(=O)C1=C[C@H](c2ccc3c(c2)OCO3)[C@@H](CCCO)[C@H](OCC)O1
72	1.2	1	N/C(Cc1nc(-c2ccc(Br)cc2)cs1)=N\O
73	1	0.4	O=C(O)c1ccccc1C(=O)NCCCn1ccnc1
74	0.06	0.17	CCCCCCSc1cc(-c2nc3ccc(Cl)cn3c2NC2CCCCC2)ccc1OC
75	2	-0.81	CC1=C(C(=O)OCc2ccccc2)C(c2ccc(C#N)cc2)NC(=O)N1CCCC(=O)O (configuration not stated)
76	0.3	0.12	O=C(C(c1ccccc1)c1ccccc1)N1CCOCC1
77	0.81	0.03	CCOc1ccc(S(=O)(=O)Nc2ccc(S(=O)(=O)Nc3cc(OC)ccc3OC)cc2)cc1
78	1.4	-1.6	CC(NC(=O)/C(=C\c1cccc([N+](=O)[O-])c1)NC(=O)c1ccco1)C(=O)O (configuration not stated)
79	0.11	-1.9	COc1cccc(-c2nc(CS(=O)CC(=O)NCCc3ccc(C)cc3)c(C)o2)c1 (configuration not stated)
80	0.51	-1.7	COc1cc(CNn2cn[nH]c2=S)cc(Br)c1OCc1ccccc1F
81	0.4	-0.91	O=C1CC(c2ccco2)CC(O)=C1C=NCC1CCNCC1 (configuration not stated)
82	0.89	0.14	COc1ccc(/C(C)=N/Nc2nc3ccccc3n3cnnc23)cc1OC
83	0.63	-0.16	CCOc1ccc(N2C(=O)CC(N3CCC(NC(=O)Nc4ccccc4)CC3)C2=O)cc1 (configuration not stated)
84	0.17	-0.27	CSC1=C(C#N)C(c2sccc2C)CC(=O)N1 (configuration not stated)
85	0.18	1.7	CC(/C=C/C=C/c1ccccc1)=N/NC(=O)CNc1ccccc1C
86	0.81	-2.9	COc1ccc(CNc2nc(NCc3ccc(OC)c(OC)c3)n(C(=O)c3cccs3)n2)cc1OC
87	0.61	0.28	CCOc1ccc(N2CC(C(=O)NCc3cccc(C)c3)CC2=O)cc1 (configuration not stated)
88	0.79	2	O=C1CCc2cc(S(=O)(=O)Nc3ccc(F)cc3)cc3c2N1CC3
89	0.01	0.25	O=C(CS(=O)(=O)c1ccccc1)c1cc2ccccc2oc1=O
90	0.02	0.79	O=S(=O)(c1ccc(Cl)cc1)N1CCCC(C(F)(F)F)C1 (configuration not stated)
91	0.71	0.51	COc1ccc(C(C)(C)C)cc1NC(=O)COC(=O)C(C)C
92	0.47	-0.46	Cc1ccc(C(=O)Nc2ccc(NC(=O)c3ccc(C)o3)cc2)o1
93	1.1	-2.3	C/C(CC(=O)NC(C)(C)C)=N\NC(=O)c1ccco1
94	0.93	-0.68	COC(=O)c1cc(NC(=O)Cc2cc(OC)c(OC)c(OC)c2)cc(C(=O)OC)c1
95	0.56	-0.05	O=c1c2ccccc2nnn1CSc1nnc(COc2ccc(Cl)cc2)n1Cc1ccco1
96	0.26	0.62	C=CCNC(=O)C1CC(=O)N(c2ccc(OCC(=O)Nc3ccc(CC)cc3)cc2)C1 (configuration not stated)
97	1.6	0.01	CCc1noc(C)c1C(=O)N1CCN(S(=O)(=O)c2c(C)c(C)cc(C)c2C)CC1
98	1.1	-1.4	Cc1ccccc1C1CC(=O)NC2=C1C(=O)CCC2 (configuration not stated)
99	1.2	1.1	COc1ccc(S(=O)(=O)NCC2CCCN(C(=O)c3ccccc3)C2)cc1 (configuration not stated)
100	0.72	2.1	COc1ccccc1NCc1ccc([N+](=O)[O-])s1

(next part)
nr	KCNQ2 enhance	KCNQ2 enhance baseline	Compound
101	0.05	-1.2	CCOc1ccc(C(C)=O)cc1COc1cccnc1[N+](=O)[O-]
102	1.5	-0.22	COc1ccc(CCNC(=O)c2cc(S(=O)(=O)N3CCOCC3)ccc2N2CCCC2)cc1OC
103	0.03	0.67	CC1CCN(C(=O)CSc2nnc(CNC(=O)c3ccc(S(=O)(=O)N(C)C)cc3)o2)CC1
104	0.52	0.15	Cc1csc(NC(=O)CSc2ncc(-c3ccccc3)[nH]2)n1
105	0.58	-1.1	COc1cc(C(=O)Nc2ccc(C#N)cc2)c([N+](=O)[O-])cc1OC
106	0.08	-1	COc1cc(N2CCOCC2)ncn1
107	0.01	0	COc1ccc(NC(=S)N(CCc2nc3cc(C)c(C)cc3[nH]2)Cc2cccnc2)cc1
108	13*	0.69*	CN(CC(=O)Nc1ccc(F)cc1)C(=O)COC(=O)C1CCN(c2ccc(C(F)(F)F)cn2)CC1

Grouped by structure, those above with a tert-butyl group (three)
nr	KCNQ2 enhance	KCNQ2 enhance baseline	Compound
60	0.08	-0.03	CC(C)(C)NC(=O)C(Cc1ccccc1)NS(=O)(=O)c1ccc2c(c1)CCC(=O)N2 (configuration not stated)
91	0.71	0.51	COc1ccc(C(C)(C)C)cc1NC(=O)COC(=O)C(C)C
93	1.1	-2.3	C/C(CC(=O)NC(C)(C)C)=N\NC(=O)c1ccco1

Laid out differently: entries from further up.
#	SMILES	KCNQ2 enhance	KCNQ2 enhance baseline
102	COc1ccc(CCNC(=O)c2cc(S(=O)(=O)N3CCOCC3)ccc2N2CCCC2)cc1OC	1.5	-0.22
103	CC1CCN(C(=O)CSc2nnc(CNC(=O)c3ccc(S(=O)(=O)N(C)C)cc3)o2)CC1	0.03	0.67
104	Cc1csc(NC(=O)CSc2ncc(-c3ccccc3)[nH]2)n1	0.52	0.15
105	COc1cc(C(=O)Nc2ccc(C#N)cc2)c([N+](=O)[O-])cc1OC	0.58	-1.1
106	COc1cc(N2CCOCC2)ncn1	0.08	-1
107	COc1ccc(NC(=S)N(CCc2nc3cc(C)c(C)cc3[nH]2)Cc2cccnc2)cc1	0.01	0
108	CN(CC(=O)Nc1ccc(F)cc1)C(=O)COC(=O)C1CCN(c2ccc(C(F)(F)F)cn2)CC1	13*	0.69*
